# Screening data as filed in PubChem BioAssay.
# Env fusion inh: blocks HIV Env-driven cell-cell fusion; HeLa-JRFL Env/CEM21 cell fusion, luciferase; inhibition, % at 12.3 µM; actives 1.1% (n = 360,000); AID 651610;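 active means mean replicate inhibition score of at least 50 and every replicate individually at or above 50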;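 further: 0% = plate neutral controls and 100% = maraviroc near 300 nM; one replicate is shown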
# Yeast UUG start: alters start codon recognition fidelity in yeast. activity score, % at 18.7 µM. actives 0.13% (n = 350,000). S. cerevisiae UUG-firefly luciferase reporter, luminescence/redox ratio;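 active means replicate mean at a twofold rise or more, about +100% in these data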;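 further: firefly luciferase made from a UUG start codon reports start codon fidelity; reporter light over untreated wells divided by growth signal over untreated wells; some hits fall short of that in this replicate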
# An asterisk follows results filed as active; [ ] = dose if it differs, or a comment.
SMILES,Env fusion inh,Yeast UUG start
COc1ccc(S(=O)(=O)N(C)C[C@H]2OCCCC[C@H](C)Oc3ccc(NS(=O)(=O)c4ccc(F)cc4)cc3C(=O)N([C@H](C)CO)C[C@@H]2C)cc1,-35[16.7 µM],9
O=C(C[C@H]1C=C[C@H](NC(=O)NC2CCCCC2)[C@@H](CO)O1)NCc1ccccc1,3[16.7 µM],-6
C[C@H](CO)N1C[C@H](C)[C@H](CN(C)C(=O)Nc2ccc3c(c2)OCO3)Oc2ccc(NS(=O)(=O)c3ccccc3)cc2C1=O,-21[16.7 µM],12
Cc1noc(C)c1S(=O)(=O)Nc1ccc2c(c1)C(=O)N([C@H](C)CO)C[C@H](C)[C@H](CN(C)S(=O)(=O)c1ccc(F)cc1)OCCCC[C@@H](C)O2,-37[16.7 µM],-10
C[C@H]1CN([C@@H](C)CO)C(=O)Cc2cc(NC(=O)Cn3cnnn3)ccc2O[C@H]1CN(C)S(=O)(=O)c1ccc(F)cc1,1[16.7 µM],6
COc1ccccc1C#Cc1ccc2c(c1)O[C@H](CN(C)Cc1ccccc1)[C@H](C)CN([C@@H](C)CO)S2(=O)=O,31[16.7 µM],-1
C[C@H](CO)N1C[C@H](C)[C@H](CN(C)Cc2ccccc2)Oc2ccc(NC(=O)C3CC3)cc2CC1=O,-5[16.7 µM],-15
C[C@@H]1CCCCO[C@@H](CN(C)S(=O)(=O)c2cccs2)[C@@H](C)CN([C@H](C)CO)C(=O)c2cc(NC(=O)Nc3ccc(C(F)(F)F)cc3)ccc2O1,10[16.7 µM],-9
CCC(=O)N(C)C[C@@H]1Oc2cc(C#CC(C)(C)O)ccc2S(=O)(=O)N([C@@H](C)CO)C[C@H]1C,-12[16.7 µM],6
COCC(=O)N(C)C[C@H]1Oc2cc(C#C[C@@H](C)O)ccc2S(=O)(=O)N([C@@H](C)CO)C[C@@H]1C,-4[16.7 µM],-4
C[C@H]1CN([C@@H](C)CO)C(=O)c2cc(NC(=O)Nc3ccc4c(c3)OCO4)ccc2O[C@@H]1CN(C)C(=O)Nc1ccc(F)cc1,-19[16.7 µM],-2
CC(C)NC(=O)N[C@@H]1CC[C@@H](CCNS(=O)(=O)c2ccc(F)cc2)O[C@H]1CO,1[16.7 µM],-4
CCCC#Cc1cnc2c(c1)C(=O)N([C@@H](C)CO)C[C@@H](C)[C@@H](CN(C)C(=O)c1cnccn1)O2,-8[16.7 µM],0
Cc1ccc(S(=O)(=O)N(C)C[C@H]2OCCCC[C@@H](C)Oc3ccc(NS(=O)(=O)c4ccc(F)cc4)cc3C(=O)N([C@H](C)CO)C[C@@H]2C)cc1,-7[16.7 µM],1
C[C@H](CO)N1C[C@H](C)[C@@H](CN(C)C(=O)CCC(F)(F)F)OCCCC[C@H](C)Oc2ccc(NC(=O)c3ccccc3)cc2C1=O,-169[16.7 µM],27
C/C=C/c1ccc2c(c1)O[C@H](CN(C)C(=O)CN(C)C)[C@H](C)CN([C@H](C)CO)S2(=O)=O,3[16.7 µM],1
CN(C)CCCNC(=O)C[C@H]1CC[C@@H](NS(=O)(=O)c2ccccc2)[C@H](CO)O1,4[16.7 µM],-10
C[C@@H]1CN([C@H](C)CO)C(=O)c2cc(C#C[C@@H](C)O)cnc2O[C@H]1CN(C)C(=O)c1ccccc1,-3[16.7 µM],-9
O=S(=O)(N[C@H]1CC[C@@H](CCn2cc(C3(O)CCCC3)nn2)O[C@@H]1CO)c1ccc(Cl)cc1,-10[16.7 µM],10
CC(C)C(=O)Nc1ccc2c(c1)C(=O)N(C)[C@@H]1CC[C@@H](CC(=O)NCc3ccccc3F)O[C@@H]1CO2,4[16.7 µM],-8
CCC(=O)Nc1ccc2c(c1)OC[C@H](C)N(C(=O)c1ccccc1F)C[C@H](C)[C@H](OC)CN(C)C2=O,-4[16.7 µM],1
COc1ccc(CN(C)C[C@H]2OCCCC[C@H](C)Oc3ccc(NC(=O)Nc4cccc5ccccc45)cc3C(=O)N([C@@H](C)CO)C[C@H]2C)cc1,4[16.7 µM],-2
CCC(=O)N(C)C[C@@H]1Oc2cc(C#Cc3ccccn3)ccc2S(=O)(=O)N([C@@H](C)CO)C[C@@H]1C,-1[16.7 µM],-1
C/C=C/c1ccc2c(c1)O[C@@H](CN(C)Cc1ccccc1)[C@@H](C)CN([C@@H](C)CO)S2(=O)=O,20[16.7 µM],-8
C[C@@H]1CN([C@@H](C)CO)S(=O)(=O)c2ccc(-c3cncnc3)cc2O[C@@H]1CN(C)Cc1ccccn1,-4[16.7 µM],-4

# Record cards, as listed above:
# COc1ccccc1C#Cc1ccc2c(c1)O[C@H](CN(C)Cc1ccccc1)[C@H](C)CN([C@@H](C)CO)S2(=O)=O as listed: Env fusion inh: 31[16.7 µM]; Yeast UUG start: -1
# C[C@H](CO)N1C[C@H](C)[C@@H](CN(C)C(=O)CCC(F)(F)F)OCCCC[C@H](C)Oc2ccc(NC(=O)c3ccccc3)cc2C1=O as listed: Env fusion inh: -169[16.7 µM]; Yeast UUG start: 27

# Following part
SMILES,Env fusion inh,Yeast UUG start
Cc1ccc(S(=O)(=O)N(C)C[C@@H]2Oc3ccc(NC(=O)C4CCCCC4)cc3C(=O)N([C@@H](C)CO)C[C@H]2C)cc1,8[16.7 µM],-12
C[C@@H]1CN([C@@H](C)CO)C(=O)c2cc(NC(=O)CCCN(C)C)ccc2O[C@@H](C)CCCCO[C@H]1CN(C)Cc1ccc2c(c1)OCO2,17[16.7 µM],0
C[C@H](CO)N1C[C@H](C)[C@@H](CN(C)CC2CCOCC2)Oc2ncc(-c3cncnc3)cc2C1=O,6[16.7 µM],-13
Cc1noc(C)c1S(=O)(=O)Nc1ccc2c(c1)C(=O)N([C@H](C)CO)C[C@H](C)[C@H](CN(C)S(=O)(=O)c1c(C)noc1C)OCCCC[C@@H](C)O2,13[16.7 µM],-11
O=C(C[C@H]1C=C[C@H](NC(=O)c2ccc(F)cc2)[C@@H](CO)O1)NCc1ccncn1,11[16.7 µM],-23
C[C@@H]1CCCCO[C@@H](CN(C)C(=O)C2CCCCC2)[C@H](C)CN([C@H](C)CO)C(=O)c2cc(NC(=O)Nc3ccc(F)cc3)ccc2O1,26[16.7 µM],-8
Cc1ccc(S(=O)(=O)N(C)C[C@@H]2Oc3cc(C#Cc4ccccc4)ccc3S(=O)(=O)N([C@@H](C)CO)C[C@H]2C)cc1,44[16.7 µM],-17
COc1ccccc1C(=O)Nc1ccc2c(c1)OC[C@@H](C)NC[C@@H](C)[C@@H](OC)CN(C)C2=O,-6[16.7 µM],-13
COCCNC(=O)C[C@H]1C[C@@H]2c3cc(NS(=O)(=O)c4ccc(F)cc4)ccc3O[C@@H]2[C@H](CO)O1,-12[16.7 µM],11
CCCNC(=O)N[C@@H]1CC[C@@H](CC(=O)NC2CCCCC2)O[C@@H]1CO,-6[16.7 µM],-14
COc1cccc(S(=O)(=O)N(C)C[C@@H]2Oc3cc(C#CCC(C)C)ccc3S(=O)(=O)N([C@H](C)CO)C[C@@H]2C)c1,62*[16.7 µM],-13
C[C@@H]1CN([C@H](C)CO)C(=O)Cc2cc(NC(=O)Cc3cn(C)c4ccccc34)ccc2O[C@@H]1CN(C)Cc1ccc(C(=O)O)cc1,-10[16.7 µM],-7
C[C@@H]1CN([C@H](C)CO)C(=O)c2cc(C3=CCCC3)cnc2O[C@@H]1CN(C)C(=O)Nc1ccccc1,-14[16.7 µM],13
C[C@H]1CCCCO[C@@H](CN(C)Cc2ccc(C(=O)O)cc2)[C@@H](C)CN([C@@H](C)CO)C(=O)c2cc(NC(=O)Nc3cccc4ccccc34)ccc2O1,15[16.7 µM],14
C[C@@H]1CN([C@H](C)CO)C(=O)Cc2cc(N(C)C)ccc2O[C@H]1CN(C)C(=O)Nc1ccc2c(c1)OCO2,-48[16.7 µM],4
CCC(=O)N[C@@H]1CC[C@H](CC(=O)NCc2cc(F)cc(F)c2)O[C@@H]1CO,0[16.7 µM],-2
C[C@H](CO)N1C[C@H](C)[C@@H](CN(C)Cc2ccc(C(=O)Nc3ccccc3N)cc2)Oc2ccc(NS(=O)(=O)c3ccccc3)cc2CC1=O,27[16.7 µM],3
C[C@H]1CN([C@@H](C)CO)C(=O)c2cc(/C=C/c3ccccc3)cnc2O[C@H]1CN(C)C,7[16.7 µM],2
CCC(=O)N[C@@H]1C=C[C@@H](CC(=O)OC)O[C@@H]1CO,-7[16.7 µM],-1
O=C(C[C@@H]1CC[C@@H](NS(=O)(=O)c2ccc(F)cc2)[C@H](CO)O1)NC1CCCCC1,0[16.7 µM],-8
Cc1ccc(-c2ccc3c(c2)O[C@@H](CN(C)C)[C@H](C)CN([C@H](C)CO)S3(=O)=O)cc1,16[16.7 µM],-5
COc1ccc(NC(=O)Nc2cccc3c2O[C@H](CN(C)Cc2ccc(C(F)(F)F)cc2)[C@@H](C)CN([C@@H](C)CO)C3=O)cc1,51[16.7 µM],7
C[C@@H]1CN([C@H](C)CO)C(=O)c2cc(NC(=O)C3CC3)ccc2O[C@@H]1CN(C)C(=O)Nc1cccc2ccccc12,5[16.7 µM],6
CCCN(C)C[C@@H]1Oc2ncc(-c3cccc(C(F)(F)F)c3)cc2C(=O)N([C@H](C)CO)C[C@@H]1C,23[16.7 µM],2
C[C@H]1CN([C@@H](C)CO)S(=O)(=O)c2ccc(-c3cccc(F)c3)cc2O[C@H]1CN(C)C(=O)C1CC1,5[16.7 µM],2

# (further entries)
SMILES,Env fusion inh,Yeast UUG start
CNC[C@H]1Oc2cc(-c3ccccc3F)ccc2S(=O)(=O)N([C@@H](C)CO)C[C@H]1C,-8[16.7 µM],9
Cc1noc(C)c1S(=O)(=O)Nc1ccc2c(c1)CC(=O)N([C@@H](C)CO)C[C@H](C)[C@H](CN(C)S(=O)(=O)c1c(C)noc1C)O2,-6[16.7 µM],32
C[C@@H]1CCCCO[C@H](CN(C)C(=O)c2ccncc2)[C@H](C)CN([C@@H](C)CO)C(=O)c2cc(NC(=O)C3CCCCC3)ccc2O1,-10[16.7 µM],-2
CCCNC(=O)N(C)C[C@@H]1Oc2cc(-c3ccccc3)ccc2S(=O)(=O)N([C@H](C)CO)C[C@H]1C,1[16.7 µM],-3
Cc1noc(C)c1NC(=O)Nc1ccc2c(c1)C(=O)N([C@@H](C)CO)C[C@H](C)[C@@H](CN(C)C(=O)c1ccccc1)OCCCC[C@@H](C)O2,15[16.7 µM],11
N#C[C@@H]1[C@H](c2ccc(-c3cncnc3)cc2)[C@H](CO)N1C(=O)C1CCC1,2[16.7 µM],-7
COc1ccc(CN(C)C[C@H]2Oc3ccc(NC(=O)C4CC4)cc3C(=O)N([C@@H](C)CO)C[C@@H]2C)cc1,36[16.7 µM],1
COc1ccccc1CNC(=O)C[C@@H]1CC[C@H](NC(C)=O)[C@@H](CO)O1,11[16.7 µM],-24
Cc1ccc(S(=O)(=O)Nc2ccc3c(c2)C(=O)N([C@@H](C)CO)C[C@H](C)[C@H](CN(C)C(=O)Nc2cccc4ccccc24)O3)cc1,3[16.7 µM],-4
COCCNC(=O)C[C@@H]1C=C[C@H](NS(=O)(=O)c2ccc(C)cc2)[C@H](CO)O1,-10[16.7 µM],-4
CCC(=O)N1C[C@@H](O)COC[C@H]2O[C@@H](CC(=O)NCc3ccc(Oc4ccccc4)cc3)CC[C@@H]21,0[16.7 µM],20
COc1ccccc1S(=O)(=O)N[C@@H]1CC[C@@H](CC(=O)N2CCOCC2)O[C@@H]1CO,-28[16.7 µM],-5
COc1ccc(S(=O)(=O)Nc2ccc3c(c2)CC(=O)N([C@@H](C)CO)C[C@@H](C)[C@H](CN(C)C(=O)Nc2ccccc2)O3)cc1,3[16.7 µM],-5
Cc1noc(C)c1NC(=O)Nc1ccc2c(c1)CC(=O)N([C@@H](C)CO)C[C@H](C)[C@H](CN(C)C(=O)Nc1ccc3c(c1)OCO3)O2,-1[16.7 µM],26
CO[C@H]1CN(C)C(=O)c2cc(NC(C)=O)ccc2OC[C@H](C)N(C(=O)CC2CC2)C[C@H]1C,7[16.7 µM],-11
Cc1ccc(S(=O)(=O)Nc2ccc3c(c2)C(=O)N([C@@H](C)CO)C[C@@H](C)[C@H](CN(C)S(=O)(=O)c2ccc(C)cc2)OCCCC[C@H](C)O3)cc1,-15[16.7 µM],-16
O=C(C[C@@H]1C=C[C@H](NC(=O)C2CC2)[C@@H](CO)O1)Nc1nccs1,4[16.7 µM],-10
COCC(=O)Nc1ccc2c(c1)C(=O)N(C)C[C@@H](OC)[C@H](C)CN(C)[C@H](C)CO2,1[16.7 µM],1

# Reprinted at random: 6 records from the list, in no set order.
SMILES,Env fusion inh,Yeast UUG start
CO[C@H]1CN(C)C(=O)c2cc(NC(C)=O)ccc2OC[C@H](C)N(C(=O)CC2CC2)C[C@H]1C,7[16.7 µM],-11
CCC(=O)N1C[C@@H](O)COC[C@H]2O[C@@H](CC(=O)NCc3ccc(Oc4ccccc4)cc3)CC[C@@H]21,0[16.7 µM],20
Cc1ccc(S(=O)(=O)Nc2ccc3c(c2)C(=O)N([C@@H](C)CO)C[C@H](C)[C@H](CN(C)C(=O)Nc2cccc4ccccc24)O3)cc1,3[16.7 µM],-4
COc1ccc(S(=O)(=O)Nc2ccc3c(c2)CC(=O)N([C@@H](C)CO)C[C@@H](C)[C@H](CN(C)C(=O)Nc2ccccc2)O3)cc1,3[16.7 µM],-5
C[C@@H]1CCCCO[C@H](CN(C)C(=O)c2ccncc2)[C@H](C)CN([C@@H](C)CO)C(=O)c2cc(NC(=O)C3CCCCC3)ccc2O1,-10[16.7 µM],-2
Cc1noc(C)c1S(=O)(=O)Nc1ccc2c(c1)CC(=O)N([C@@H](C)CO)C[C@H](C)[C@H](CN(C)S(=O)(=O)c1c(C)noc1C)O2,-6[16.7 µM],32

# A portion of the library (hit frequency here may not be typical).
